# TRPML1 ag: agonists of human TRPML1 channel. Q9GZU1. TRPML1-expressing cells, Ca2+ dye fluorescence, FDSS; host cell line not named in the record; reference of the full effect not given here. activation, % (test concentration not listed). 0.12% of 410,000 active. AID 624414; in the data active = activation above about 50%; inconclusive = about 30% to 50%; inactive = below about 30%; also: 0% is about no effect; the text of the record puts the active cut at 80%
# Target sequence (Q9GZU1 whole entry, looked up): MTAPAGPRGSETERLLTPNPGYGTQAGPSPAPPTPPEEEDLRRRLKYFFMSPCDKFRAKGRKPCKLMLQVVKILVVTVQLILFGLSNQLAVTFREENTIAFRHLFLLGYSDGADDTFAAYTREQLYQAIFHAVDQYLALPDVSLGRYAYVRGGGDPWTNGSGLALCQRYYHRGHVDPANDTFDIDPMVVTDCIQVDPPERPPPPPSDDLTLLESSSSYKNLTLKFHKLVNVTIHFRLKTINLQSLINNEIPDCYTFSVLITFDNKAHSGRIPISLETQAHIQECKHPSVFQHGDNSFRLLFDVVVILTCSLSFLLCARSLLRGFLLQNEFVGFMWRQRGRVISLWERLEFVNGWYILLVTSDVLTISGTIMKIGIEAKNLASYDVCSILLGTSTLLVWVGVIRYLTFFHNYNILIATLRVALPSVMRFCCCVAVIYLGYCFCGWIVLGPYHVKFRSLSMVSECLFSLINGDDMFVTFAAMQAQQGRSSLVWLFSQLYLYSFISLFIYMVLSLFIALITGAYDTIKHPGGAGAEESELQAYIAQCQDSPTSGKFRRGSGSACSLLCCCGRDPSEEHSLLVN
#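 Kinetic FDSS Ca2+ read in Tet-induced TRPML1-DL cells (ABD Ca8 dye plus quencher, 45-90 min RT loading): baseline, then compound, then 110 s agonist window; EC80 agonist 54-4 at 4uM final added afterwards for a 110 s antagonist window.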
# Numbers without * were called inactive; ? = inconclusive; & = joins results of further samples. The list is partial. The share of hits here may be higher or lower than overall.
structure	TRPML1 ag
Nc1ccc(O)cc1	-0.6
Cc1ccccc1OCC(=O)NCC(=O)OCC(=O)c1ccc(-c2ccccc2)cc1	0.4
Cc1cc(C=O)cc(C)c1[N+](=O)[O-]	-0.5
O=[N+]([O-])c1ccc(Nc2nc(NCCN3CCOCC3)nc(Nc3ccc(I)cc3)n2)cc1	-0.5
O=c1oc2ccc(Br)cc2cc1-c1nc2c(s1)CCc1ccccc1-2	0.9
O=c1cc(O)c2c([nH]1)CCC2	-0.3
CN(C)c1ccc(/C=C/c2ccnc3c(N)cccc23)cc1	11
CCc1ccc(NC(=O)c2nc(SCc3ccccc3F)ncc2Cl)cc1	0.1
Nc1ccc[n+](CC(=O)c2ccc(F)cc2)c1	?
O=C1CCCC2=C1C(c1ccc(Cl)cc1)N=C(Nc1nc3ccccc3o1)N2 (stereo not given)	-0.3
CCOC(=O)C(CC)Sc1ccc2nnc(-c3ccc(F)cc3)n2n1 (stereo not given)	0.6
[O-][N+](=NC1C=Cc2ccccc21)C1C=Cc2ccccc21 (stereo not given)	-0.2

# New compounds follow.
structure	TRPML1 ag
C(=C\c1ccnc2ccccc12)/c1ccc(N2CCOCC2)cc1	-1.1
O=C(NC1CC1)c1ccc2nc(-c3ccco3)c(-c3ccco3)nc2c1	1.5
C[N+]1(CC(=O)c2ccc3ccccc3c2)CCOCC1	-0.5
O=C(C[n+]1cccc2ccccc21)c1ccc(F)cc1	4.7
O=Cc1ccc(/C=C2/C=Cc3ccccc32)cc1	0.3
COc1ccc(OC)c(/C=C/c2ccccc2)c1	-0.6
O=C(Nc1ccc2nc(-c3cccs3)c(-c3cccs3)nc2c1)N1CCCC1	-0.9
CC1CCN(C(=O)C(C)OC(=O)c2ccc(S(C)(=O)=O)c([N+](=O)[O-])c2)CC1 (stereo not given)	-0.8
C=CC[n+]1cccc2cccc(O)c21	3.0
CC(=O)NCCCNC(=S)NCCCN(Cc1ccc(Cl)cc1)c1ccc(Br)cn1	-0.1
O=S(=O)(c1cnc2ccccc2c1)N1CCN(c2nc(-c3cccs3)nc3ccccc23)CC1	0.5
CCCCNC(=O)Cn1c(SCc2cccc(C)c2)nc2ccncc21	-0.6

# Later entries.
structure	TRPML1 ag
O=[N+]([O-])c1ccc2c(c1)/C(=C/c1ccc(C=S)cc1)C=C2	-0.7
COc1ccc(Cc2cnc(N)nc2N)cc1OC	-0.4
CCc1ccccc1NNC(=O)c1sccc1Cl	-0.9
OCc1ccccc1	-0.8
Cc1cc(C)n2c(Nc3ccccc3)c(-c3ccc(C)o3)nc2n1	-0.8
O=C(C[n+]1ccccc1Br)c1ccc2c(c1)CCCC2	-0.1
Cc1ccnc2c(O)cccc12	-0.1
Cc1nc(Nc2ncc(C(=O)Nc3c(C)cccc3Cl)s2)cc(N2CCN(CCO)CC2)n1	-0.7
COC(=O)c1ccc(NC(=O)c2ccccc2OCC(=O)Nc2ccc(Br)cc2)cc1	0.5
COc1cccc(/C=C/c2ccc3ccccc3[n+]2C)c1OC	-0.8
O=c1[nH]/c(=C/c2ccc3c(c2)OCO3)c(=O)[nH]/c1=C/c1ccc2c(c1)OCO2	0.6
Cc1ccc(-c2nc3ccc(Cl)cn3c2Nc2ccccc2)o1	-0.8

# Some of these compounds in order of number of heavy atoms, rising.
structure	TRPML1 ag
Nc1ccc(O)cc1	-0.6
O=C(C[n+]1ccccc1Br)c1ccc2c(c1)CCCC2	-0.1
O=[N+]([O-])c1ccc2c(c1)/C(=C/c1ccc(C=S)cc1)C=C2	-0.7
Cc1ccc(-c2nc3ccc(Cl)cn3c2Nc2ccccc2)o1	-0.8
C(=C\c1ccnc2ccccc12)/c1ccc(N2CCOCC2)cc1	-1.1

# (next part)
structure	TRPML1 ag
OCCNc1nc(-c2cccs2)nc2ccccc12	0.4
C=C1NN(CC2CC2)C(=O)N1c1ccc(OCc2ccccc2)cc1	-0.7
O/N=C(/CI)c1ccc2ccccc2c1	-0.3
CC1=C(C(=O)OCc2ccc3nsnc3c2)N2C(=O)[C@@H](NC(=O)OCc3ccc4nsnc4c3)[C@H]2SC1	2.6
O=S(=O)(c1cccnc1)N1CCN(c2nc(-c3cccs3)nc3ccccc23)CC1	-0.5
C[N+](C)(CCCCCI)c1ccc(/C=C/c2nc3ccccc3s2)cc1	3.7
Cc1cc(=O)[nH]c2ccc(O)cc12	0.0
Cc1ccc2nc(CO)[nH]c2c1	-0.2
O=S(=O)(c1ccc(Oc2ccc3c(c2)OCO3)c(S(=O)(=O)N2CCOCC2)c1)N1CCOCC1	-0.1
COc1cc2c(Nc3ccc(NC(=O)c4ccccc4)cc3)ncnc2cc1OCCCN1CCOCC1	-0.7
Cc1[nH]c2ccccc2c1C(=O)CNc1ccc(Br)cc1	1.9
C=CCNC(=O)c1cnn2c1NC(=C)C=C2C	-0.5

# Molecules above that have a thiophene ring, fused or not, in the order listed:
structure	TRPML1 ag
O=C(Nc1ccc2nc(-c3cccs3)c(-c3cccs3)nc2c1)N1CCCC1	-0.9
O=S(=O)(c1cnc2ccccc2c1)N1CCN(c2nc(-c3cccs3)nc3ccccc23)CC1	0.5
CCc1ccccc1NNC(=O)c1sccc1Cl	-0.9
OCCNc1nc(-c2cccs2)nc2ccccc12	0.4
O=S(=O)(c1cccnc1)N1CCN(c2nc(-c3cccs3)nc3ccccc23)CC1	-0.5

# Later entries
structure	TRPML1 ag
COc1ccc(-c2nc(=N)sn2-c2ccccc2)cc1	12
COc1cccc(/C=C/c2ccnc3ccccc23)c1OC	-0.5
COc1cc2c(NC3CCN(C(C)C)CC3)nc(N3CCCN(C)CC3)nc2cc1OCCCN(C)C	0.0
O=C(CBr)c1ccc(Oc2ccc(C(=O)C[n+]3ccccc3Cl)cc2)cc1	-0.3
Cc1ccccc1CN1Cc2cccc3c2[C@H](C=CC3)CC1=O	-0.3
NCCCN(Cc1ccc(Cl)c(Cl)c1)c1ccc(Br)cn1	0.2
CCN(Cc1ccccc1)c1ccc(/C=C/c2nccc3ccccc23)cc1	22
O=C1c2ccccc2NC(c2cc(Br)c3c(c2)OCO3)N1Cc1ccco1 (stereo not given)	-0.8
O=S(=O)(c1cc(Cl)cc(Cl)c1)N1CCN(c2nc(-c3cccs3)nc3ccccc23)CC1	-0.2
C(=C\c1ccnc2ccccc12)/c1ccccc1	0.6
O=C(C[n+]1cccc2cc(Cl)ccc21)c1ccc2c(c1)CCCC2	-0.3
COc1cc(C2Nc3ccccc3C(=O)N2Cc2ccccc2)ccc1OCc1ccccc1 (stereo not given)	-0.5

# (list continues)
structure	TRPML1 ag
O=C(Nc1ncnc2nc[nH]c12)c1ccccc1	-0.9&0.0
C=C1C=C(C)n2ncc(C(=O)Nc3ccccc3O)c2N1	-0.5
S=c1nc[nH]c2n[nH]nc12	-0.3
CC(=O)C[n+]1cccc(Br)c1	-0.6
O/N=C(/C[n+]1ccsc1)c1ccc(I)cc1	-0.7
CCCN(CCC)c1ccc(/C=C/c2sc3ccccc3[n+]2CCCCI)cc1	18
COc1ccccc1C(C)NCC(=O)c1c(C)[nH]c2ccccc12 (stereo not given)	-0.2
COc1cccc2nccc(/C=C/c3ccc(N(C)C)cc3)c12	26
COc1ccc(S(=O)(=O)N2CCOCC2)cc1	-0.6
Cc1ccc(-n2c(-c3ccccc3)nsc2=NC#N)cc1	-0.8
CN(C)/C=C1\C=Cc2ccccc21	-0.4
CC(=O)N(c1ccc(Cl)cc1)C1SC(=O)N(c2ccc(C)cc2)C1=O (stereo not given)	-0.3

# Following part:
structure	TRPML1 ag
c1ccc2c3c([nH]c2c1)CCCC3	-0.1
N#CC(=Cc1ccc(O)c(O)c1)C(=O)NCc1ccccc1	-0.4
O=C1c2ccccc2-c2cc([N+](=O)[O-])c([N+](=O)[O-])cc21	-0.2
CN(C)c1ccc(/C=c2\[nH]c(=O)/c(=C\c3ccc(N(C)C)cc3)[nH]c2=O)cc1	2.5
CCCCCCCN(c1ccccc1)C1C[C@H]2CCCC(=O)N3CC[C@@H](C1)[C@@H]23 (stereo not given in full)	-0.7
O=C(C[N+]1(CCO)CCOCC1)c1ccc(F)c2ccccc12	1.9
CN(C)c1ccc(/C=C2\C=Cc3ccccc32)cc1N	-0.1
COc1cc2nc(Cl)nc(NC3CCN(C)CC3)c2cc1OC	-0.3
O=C(COc1ccccc1C(=O)Nc1cccc([N+](=O)[O-])c1)Nc1ccc(Br)cc1	-0.1
C=C[C@@]1(C)C[C@H](OC(=O)CSC(C)(C)CNC(=O)[C@@H](N)C(C)C)[C@@]2(C)C(C)CC[C@@]3(CCC(=O)[C@@H]32)[C@H](C)[C@H]1O (stereo not given in full)	4.5
CN(C)c1ccc(N=Cc2cccc3ccccc23)cc1	-0.3
CC(=O)N1CCN(c2ccc(OC[C@@H]3CO[C@@](Cn4ccnc4)(c4ccc(Cl)cc4Cl)O3)cc2)CC1	1.8&4.9

# Additional entries follow.
structure	TRPML1 ag
COc1ccc(N(C(C)=O)C2SC(=O)N(c3ccccc3)C2=O)cc1 (stereo not given)	-0.1
COc1ccc(C2Nc3ccccc3C(=O)N2c2ccccc2)cc1COc1ccc(NC(C)=O)cc1 (stereo not given)	-0.3
CNC(=O)COc1ccccc1C(=O)Nc1ccccc1	-0.8
Cc1cc(C)c2ccccc2n1	-0.1
O=C(Nc1ccc2c(c1)CCC2)c1cnn2c1NC(=C1CC1)C=C2C(F)F	-0.8
Clc1ccc(Nc2nc(Nc3ccc(Cl)cc3)nc(N3CCOCC3)n2)cc1	-0.4
COc1cc2nc(N3CCOCC3)nc(NC3CCN(Cc4ccccc4)CC3)c2cc1OC	-0.4
COc1cc2nc(N3CCCN(C)CC3)nc(OC3CCN(C)CC3)c2cc1OC	-0.8
O=S(=O)(c1ccc2c(c1)OCCO2)N1CCN(c2nc(-c3cccs3)nc3ccccc23)CC1	0.2&0.3
O=C(c1ccco1)N1CCN(/C=C2\Nc3ccccc3C(=O)N2c2ccc(F)cc2)CC1	-0.4
O=C(Cc1ccccc1)NO	-0.5
NN=C1c2cc(S(=O)(=O)NCCO)ccc2-c2ccc(S(=O)(=O)NCCO)cc21	-0.5

# Continuation:
structure	TRPML1 ag
c1nc(SSc2ncc3n[nH]nc3n2)nc2n[nH]nc12	-0.3
Nc1ncnc2c1nc(Cl)n2[C@@H]1O[C@H](CO)[C@@H](O)[C@@H]1O	0.2
CCN(CC)c1ccc(/C=C/C2=C3C=CC=CC3NC=C2)cc1 (stereo not given)	18
Cc1ccc2nc(-c3ccc(C)c(NC(=O)COc4ccc(Br)cc4)c3)oc2c1	0.0
N#Cc1nc(N2CCCCC2)nc(N2CCCCC2)n1	-0.8
Nc1nc2ncc(CNc3ccc(C(=O)NC(CCC(=O)O)C(=O)O)cc3)nc2c(=O)[nH]1 (stereo not given)	-0.2
CCOCCCNC(=O)c1c(NC(=O)c2nc(SCC)ncc2Cl)sc2c1CCCC2	-0.4
CCCN1CNc2c(c(=O)[nH]c(=S)n2CCc2cc(OC)ccc2OC)C1	-0.5
O=C1c2ccccc2C(=O)N1c1cccc(N2C(=O)c3ccccc3C2=O)n1	-0.3
CC1CCc2nc(-c3cc4ccc(O)cc4oc3=O)sc2C1 (stereo not given)	?
COc1ccc(C2N=C(Nc3nc4ccccc4o3)NC3=C2C(=O)CC(C)(C)C3)cc1 (stereo not given)	-0.1
O=C(COC(=O)c1ccccc1OCCOc1ccccc1)Nc1cccc(Br)c1	-1.4

# Remaining list, next part:
structure	TRPML1 ag
CCOc1ccc(/C=C/c2ccc3ccccc3[n+]2C)cc1OCC	4.0
Nc1nc(SCC(=O)O)c2[nH]cnc2n1	0.2
COc1ccc(OC)c2c(C)ccnc12	-0.6
CCN(CC)S(=O)(=O)c1ccc(NC(=O)CSc2nnc3c(n2)[nH]c2ccccc23)cc1	-0.5
O=C1C(=O)C(c2cc(O)c(O)c(O)c2)Oc2cc(O)cc(O)c21 (stereo not given)	0.8
c1ccc(CNc2ncnc3nc(N4CCOCC4)[nH]c23)cc1	-0.4
C=C(C)[C@@H]1C2=CC(C(=O)OC)=C(C[C@@H](C(=C)C)[C@H]3O[C@H]3C3=C[C@H]1OC3=O)O2	1.9
Nc1ccc(/C=C/c2cccc3cccnc23)cc1	4.1
Cc1ccc(S(=O)(=O)N2CCN(c3cc(-c4cccs4)nc4ccccc34)CC2)cc1	-0.5
CC(NS(=O)(=O)c1ccccc1[N+](=O)[O-])c1ccccn1 (stereo not given)	-0.3
O=C(CCl)c1ccc2c(c1)CCCC2	1.3
COc1cc2c(NC3CCN(C)CC3)nc(N3CCCN(C)CC3)nc2cc1OCCCCCCN(C)C	-0.2

# Other compounds:
structure	TRPML1 ag
CC(C)=CNNC(=O)c1ccc(O)cc1	-0.7
O=C(Nc1ccc2nc(-c3cccs3)c(-c3cccs3)nc2c1)N1CCCCC1	-0.2
CNc1ccc(/C=C2\C=Cc3ccccc32)cc1I	-0.4
CS/C(=N\S(=O)(=O)c1ccc(F)cc1)c1ccccc1	-0.5
O=C(CC(C(=O)O)n1ccnc1)c1ccc(Cl)cc1 (stereo not given)	-0.4
Cc1ccc(NC(=O)c2nc(SCc3ccccc3F)ncc2Cl)cc1	-0.6
CCOc1ccc2cc(C#N)c(SCC(=O)OCc3ccccc3)nc2c1	0.5
O=C(CN(CCc1c[nH]c2ccccc12)S(=O)(=O)c1ccccc1)N1CCCCCC1	-0.4
CCCCOc1ccc(CC(N)=O)cc1	-0.3
CC(CCC(C)[n+]1cccc(Br)c1)[n+]1cccc(Br)c1 (stereo not given)	-0.8
